Bm FixLJ act = increases Burkholderia fixLJ two-component signaling; z-score (concentration not given with the values); AID 1918990; B. multivorans fixK-promoter GFP reporter, 18 h; active compounds read high; actives 0.3% (n = 29,000);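 active = replicate mean overnight rise in green fluorescent reporter signal, 3 or more SD over negative controls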;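 also: score is relative to vehicle wells of the plate; 300 nL library stock went into each well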
The depositor's hits bear a star.

SMILES	Bm FixLJ act
CC(NC(=O)N1CCCC2(CCOCC2)C1)c1nc(-c2ccccc2)no1 (stereo not given)	-1.1
Cc1ccccc1CN1CCC(c2nnc(Cn3ccnc3)n2C)CC1	-1.1
CCN1CCSc2ccc(C(=O)NC(C)c3ccccc3)cc21 (stereo not given)	0.95
Cc1nc2sccn2c(=O)c1S(=O)(=O)Nc1ccc(N2CCN(C(=O)C(C)C)CC2)cc1	-1.1
COc1ccccc1CNC(=O)c1cc2c(s1)-c1ccccc1OC2	0.43
CSc1ccc(C(=O)NC2CCN(Cc3cccnc3)CC2O)cc1 (stereo not given)	-0.78
Cc1cccc(N(CC(=O)NCCSCc2ccccc2)S(=O)(=O)c2ccccc2)c1C	0.98
O=C1CC(Cn2ccnc2-c2cnn3cccnc23)CN1C1CCCC1 (stereo not given)	-0.76
CNS(=O)(=O)c1ccc(CN2CC(N(C)C)CC2C(=O)O)cc1 (stereo not given)	0.11
Cc1ccc(OC(=O)c2cc(-c3ccccc3)nc3ccc(C)cc23)cc1	-0.94
CCOc1ccc2nc(N3CCCC(C(=O)NCc4ccc(OC)cc4)C3)sc2c1 (stereo not given)	-0.91
Cc1nc2c(c(N(C)CC3(CO)CC3)n1)Cc1ccccc1OC2	-1.7
COc1ccccc1N1CCN(C(=O)COc2ccccc2C#N)CC1	-0.56
COc1cc(C2C(C(=O)OCC(C)C)=C(C)N=C3SCCC(=O)N32)ccc1OCc1ccccc1 (stereo not given)	-2.5
COC1CCN(C(=O)Nc2ccnn2C(C)c2ccccc2)CC1 (stereo not given)	-0.8
Cc1nc2sccn2c(=O)c1S(=O)(=O)Nc1ccc(N2CCN(C)CC2)cc1	-1.2
COc1ccc(-c2noc(N(c3nc(-c4ccc(OC)c(OC)c4)no3)c3ccccc3OC)n2)cc1OC	-1.5
Cc1c(Cl)cccc1-c1ccc(C(=O)Nc2ccc(F)cc2)o1	2.3
COc1ccccc1NC(=O)CSc1oc(-c2ccco2)nc1S(=O)(=O)c1ccc(Br)cc1	-2.1
COCCCNC(=O)C1CCN(C(=O)c2cc3sccc3n2Cc2ccc(Cl)cc2)CC1	-2.6
COc1cccc(OC)c1C(=O)Nc1nc2c(s1)CCc1ccccc1-2	-1.4
COc1ccc(OC)c(NC(=O)Cn2c(=O)n(Cc3ccco3)c(=O)c3cc(OC)c(OC)cc32)c1	0.11
N#Cc1ccccc1Cn1c(=O)n(-c2cccc(C(F)(F)F)c2)c(=O)c2sccc21	-2
CC1(C)CC(O)CCN(C(=O)NCc2ccccc2-n2cccn2)C1 (stereo not given)	-0.52
CCOc1ccccc1C(=O)N1CCc2cc(OC)c(OC)cc2C1COc1ccc2c(C)cc(=O)oc2c1 (stereo not given)	-0.67
(more compounds)
SMILES	Bm FixLJ act
CCCCOc1ccccc1C(=O)N(Cc1ccc(C)o1)C1CCS(=O)(=O)C1 (stereo not given)	-0.33
COC(=O)c1c(NC(=O)c2nc(SC)ncc2Cl)sc2c1CCCC2	-0.2
CCCCSc1nnc2c(n1)OC(c1ccc(Br)s1)N(C(C)=O)c1ccccc1-2 (stereo not given)	-1.6
CCCc1cc(C(=O)N2CCc3c(nc(C)nc3N(C)C)C2)n[nH]1	-5
CN(CCCOc1ccccc1Cl)S(=O)(=O)c1ccc2nc[nH]c2c1	-0.35
Cc1cc(C)n(-c2ccc(C(=O)N(C)Cc3cnc4ccccc4n3)cc2)n1	-3
COc1ccc2c(c1)CCOC21CCN(C(=O)c2cccc(NC(=O)C(C)C)c2)CC1	-0.85
CCN1C(=O)CC(C(=O)Nc2ccc(OC)cc2)SC1=Nc1ccc(C)c(C)c1 (stereo not given)	-0.45
COCc1cc(C)nc2sc3c(c12)NC(c1ccc(NC(C)=O)cc1)N(c1ccc(C)cc1)C3=O (stereo not given)	-0.82
CCCN(C(=O)c1cc2c(=O)oc3ccccc3c2s1)c1ccccc1C	2.6
CCN(Cc1ccccc1)Cc1c(O)ccc2c(=O)c(-c3ccc(Cl)cc3Cl)coc12	0.16
NC(=O)CN1CCC(N2CC(COc3ccc(F)cc3)OCC2=O)CC1 (stereo not given)	-0.47
CCOc1ccccc1NC(=O)Cn1c(=O)n(-c2ccc(F)cc2)c(=O)c2sc3ccccc3c21	-0.02
CCn1c(=O)cc(OCC(=O)Nc2ccc(C)c(F)c2)c2ccccc21	-1.3
CCCOC(=O)c1c(NC(=O)c2cc3ccccc3c(=O)o2)sc2c1CCC(C)C2 (stereo not given)	1.3
CC(=O)OCC(=O)[C@@]12OC(C)(C)O[C@@H]1CC1C3C[C@H](F)C4=CC(=O)C=C[C@]4(C)[C@@]3(F)[C@@H](O)C[C@@]12C (stereo not given in full)	0.17
COc1ccc(CC(=O)Nc2sc3c(c2C(=O)Nc2ccccc2)CCCCC3)cc1	-2.1
Cc1ccc(-c2nc3c4cnn(-c5cc(Cl)ccc5Cl)c4ncn3n2)cc1	-0.28
Cc1ccc2nc3c(cc(C(=O)NC4CCCC4)c(=N)n3C(C)C)c(=O)n2c1	-1.7
CCc1ccccc1NC(=O)[C@H](Cc1ccccc1)N1Cc2ccccc2C1=O	-0.75
NS(=O)(=O)c1ccc(NC(=O)C(=O)Nc2ccc3nc4n(c(=O)c3c2)CCCCC4)cc1	-1.2
CCCCN(C)C(=O)C(Cc1ccccc1)NS(=O)(=O)c1ccc2c(c1)c(=O)n(C)c(=O)n2C (stereo not given)	-0.55
COc1ccc(C(NC(=O)C2(CO)CC2)C2CC(O)C2)cn1 (stereo not given)	0.49
COCC(c1ccccn1)N(C)C(=O)c1nn(C)cc1Cl (stereo not given)	-1
CCOc1ccc(C(=O)Nc2cc3c(cc2N2CCCC2)n(C)c(=O)c(=O)n3C)cc1OCC	0.1
Carrying on:
SMILES	Bm FixLJ act
COC(=O)CC1Oc2ccc(Cl)cc2-n2cc(-c3ccc(F)cc3)nc21 (stereo not given)	-0.47
O=C(Nc1ccc(OCC(=O)N2CCOCC2)cc1)C1CCc2ccccc21 (stereo not given)	-0.64
CCCCNC(=O)CN(C)C(=O)c1ccc(-c2nccc3ccccc23)cc1	-0.32
COc1ccc(S(=O)(=O)Nc2cc3c(cc2NCc2ccccc2)n(C)c(=O)n3C)cc1	-1.1
O=C(O)C1CN(C(=O)c2c[nH]c(=O)c(Cl)c2)CC1c1ccccc1 (stereo not given)	-0.53
CC(=O)OCC(=O)[C@@]1(O)CCC2C3CCC4=CC(=O)CC[C@]4(C)[C@@]3(F)[C@@H](O)C[C@@]21C (stereo not given in full)	-0.21
Cc1cccc(N2CCN(CCNC(=O)Nc3ccc(Cl)cc3)CC2)c1C	-0.19
CC(C)(C)OC(=O)N1CCC(c2nnc(SCc3cccc(Cl)c3)o2)CC1	0.47
Cn1ccnc1CCN1CCCN(C(=O)CCc2ccnn2C)CC1	-0.87
COc1ccc(CNc2nc(-c3ccc(Cl)cc3)nn2C(=O)c2ccccc2)cc1	-2.7
CCCCN(CC)CCNC(=O)c1cn(C)c(=O)c2c1c1ccccc1n2C	-0.43
Cc1ccc(CN2CCSc3ccc(C(=O)Nc4ccc(F)cc4F)cc32)cc1	1.2
CC(=O)N1CCc2c(sc3c2c(=O)n(CCc2ccccc2)c(=O)n3Cc2ccc(Cl)cc2)C1	-1.6
CCN(C(=O)Cn1nnc2sc3c(c2c1=O)CCC(C(C)(C)C)C3)c1cccc(C)c1 (stereo not given)	-0.3
Cc1nc(CCNC(=O)CC2Cc3ccccc3C2)nc2c1CCCC2	-0.53
COc1ccccc1CC(C)N(C)C(=O)Nc1cc(C2CC2)nn1C (stereo not given)	-1
O=C(Cn1ncc2c3ccccc3n(Cc3ccc(F)cc3)c2c1=O)NCCC1=CCCCC1	-0.48
COc1ccc(N2C(=O)NC(NS(=O)(=O)c3ccc(NC(C)=O)cc3)(C(F)(F)F)C2=O)cc1 (stereo not given)	-0.26
CC(=O)c1ccc(NC(=O)c2ccc(-c3ccc(Cl)cc3)o2)cc1	-1.2
Cc1ccc(NC(=O)CN(C)S(=O)(=O)c2cnc[nH]2)cc1	-1.4
O=C(CSc1nc(-c2cccc(F)c2)[nH]c1-c1ccccc1)Nc1ccc2c(c1)OCCO2	0.96
Cc1cc(C(F)(F)F)n2ncc(C(=O)N3CCCOC(C)C3)c2n1 (stereo not given)	-0.05
COc1ccc(-c2cc(C(=O)NCCc3ccc(OC)c(OC)c3)c3ccccc3n2)cc1	-1.2
Cc1ccc(S(N)(=O)=O)cc1NC(=O)NC(c1ncnn1C)C(C)C (stereo not given)	0.4
O=C(NCc1cn[nH]c1-c1ccc(F)cc1)N1CCN(CCCO)CC1	-1.9
(continued)
SMILES	Bm FixLJ act
Cc1cc(C(=O)NCc2cc3n(n2)CCN(C2CCCCC2)C3)ccc1O	-0.44
CCOC(=O)c1ccc(N2C(=O)c3[nH]nc(-c4ccc(OCC)cc4)c3C2c2ccc(OC)cc2OC)cc1 (stereo not given)	-0.85
Cc1cc(=O)n2nc(N3CCC(C(=O)NCc4ccccc4)CC3)sc2n1	-0.75
CCOC(=O)CSc1ncnc2c1c(-c1ccccc1)cn2-c1ccc(OC)cc1	2.3
Cn1c(CN2CCC(O)CC2)nnc1C1CCCN(CCC(C)(C)C)C1 (stereo not given)	-0.11
N#C/C(=C\c1ccc(F)cc1)C(=O)NCC1CCCO1 (stereo not given)	-1
COc1ccc(C2NC(=O)N(C)C3=C2C(=O)N(c2cccc(C(=O)O)c2)C3)cc1 (stereo not given)	-0.92
CCOCCOC(=O)c1ccc(NC(=O)/C=C/c2ccc(OC)c(OC)c2)cc1	0.59
CCCn1c(=O)sc2cc(NC(=O)c3ccc(OC)c(Br)c3)ccc21	-1.9
COCCN1CC2(CCCN(C(=O)c3ccc[nH]3)C2)CCC1=O (stereo not given)	-1.3
COc1ccc(-c2cc(C(=O)Nc3c(Cl)cccc3Cl)no2)cc1OC	-0.27
Cc1cccc(Cn2cc(S(=O)(=O)c3ccc(Cl)cc3)c(=O)c3cc4c(cc32)OCO4)c1	-0.28
CCCN1C[C@@]2(C(=O)O)CN(c3noc(-c4ccccc4)n3)CC2C1=O (stereo not given in full)	0.27
COc1ccccc1NC(=O)c1cc2c(-c3ccccc3)nn(-c3ccccc3)c2s1	0.7
CCCCNC(=O)c1cc2c(=O)n3cccc(C)c3nc2s1	1
CCOc1ccc(CCNC(=O)CS(=O)(=O)Cc2nc(-c3ccc(OC)cc3)oc2C)cc1	-0.29
CCOc1ccc(Nc2nc(Nc3ccc(OCC)cc3)nc(N3CCOCC3)n2)cc1	-2.3
CN(CCN1CCCCC1=O)C(=O)c1ccc(N2CCOCC2)cc1	-0.44
Cc1cccc(C(NC(=O)c2ccc(C)cc2F)C(=O)O)c1 (stereo not given)	-0.11
COc1ccccc1NC(=O)Cn1nnc(C(=O)NCc2cccs2)c1N	-1.4
Cc1ccc2c(=O)cc(C(=O)Nc3c(C(=O)Nc4cccc(Cl)c4)oc4ccccc34)oc2c1	-1.2
COc1ccccc1O	-1.8
COc1cc(NC(=O)CCS(=O)(=O)c2nc(-c3cccs3)cc(C(F)(F)F)n2)cc(OC)c1OC	-0.32
CCOC(=O)c1ccc(N2C(=O)c3n[nH]c(-c4ccco4)c3C2c2ccc(O)cc2)cc1 (stereo not given)	2.6
Cc1sc(-c2cc3c([nH]c2=O)CC(c2ccccc2)CC3=O)nc1-c1ccc(Cl)cc1 (stereo not given)	-0.82

6 compounds drawn at random from the list so far:
SMILES	Bm FixLJ act
Cc1cc(=O)n2nc(N3CCC(C(=O)NCc4ccccc4)CC3)sc2n1	-0.75
CCCn1c(=O)sc2cc(NC(=O)c3ccc(OC)c(Br)c3)ccc21	-1.9
COc1ccccc1NC(=O)c1cc2c(-c3ccccc3)nn(-c3ccccc3)c2s1	0.7
COCCN1CC2(CCCN(C(=O)c3ccc[nH]3)C2)CCC1=O (stereo not given)	-1.3
COc1ccc(-c2cc(C(=O)Nc3c(Cl)cccc3Cl)no2)cc1OC	-0.27
Cc1sc(-c2cc3c([nH]c2=O)CC(c2ccccc2)CC3=O)nc1-c1ccc(Cl)cc1 (stereo not given)	-0.82

Sorted by heavy-atom count (rising): part of the list above.
SMILES	Bm FixLJ act
COc1ccccc1O	-1.8
Cc1cccc(C(NC(=O)c2ccc(C)cc2F)C(=O)O)c1 (stereo not given)	-0.11
Cc1cc(=O)n2nc(N3CCC(C(=O)NCc4ccccc4)CC3)sc2n1	-0.75

Back to the main list; the 3 compounds before the break are reprinted first.
SMILES	Bm FixLJ act
COc1cc(NC(=O)CCS(=O)(=O)c2nc(-c3cccs3)cc(C(F)(F)F)n2)cc(OC)c1OC	-0.32
CCOC(=O)c1ccc(N2C(=O)c3n[nH]c(-c4ccco4)c3C2c2ccc(O)cc2)cc1 (stereo not given)	2.6
Cc1sc(-c2cc3c([nH]c2=O)CC(c2ccccc2)CC3=O)nc1-c1ccc(Cl)cc1 (stereo not given)	-0.82
NC[C@@H]1O[C@H](O[C@@H]2[C@@H](CO)OC(O[C@@H]3[C@@H](O)[C@H](N)C[C@H](N)[C@H]3OC3O[C@H](CN)[C@@H](O)[C@H](O)[C@H]3N)[C@@H]2O)[C@H](N)[C@@H](O)[C@@H]1O (stereo not given in full)	0.03
COc1cccc(NC(=O)Cn2c(=O)n(CCc3ccc(OC)c(OC)c3)c(=O)c3ccccc32)c1	-1.1
Cc1ccc(COC(=O)c2[nH]c3c(c2C)C(=O)CC(c2ccc(N(C)C)cc2)C3)cc1 (stereo not given)	0.12
O=C(CSc1nc(-c2ccc(F)cc2)[nH]c1-c1ccccc1)NCC1CCCO1 (stereo not given)	-1.4
Cc1cc(Nc2ccc(C)c(C)c2)n2cnnc2n1	0.53
Cc1ccc2c(c1)c(=O)c1ccccc1n2CCCC(=O)Nc1ccc(Cl)cc1C	-1.2
COCCCNC(=O)CSc1nc(-c2ccc(OC)cc2)[nH]c1-c1ccc(OC)cc1	-0.86
Cc1nc(CCNc2cc(C3CCOC3)nc(N)n2)nc2c1CCCC2 (stereo not given)	-1.4

As entered above:
Reading for COc1ccc2c(c1)CCOC21CCN(C(=O)c2cccc(NC(=O)C(C)C)c2)CC1 in Bm FixLJ act: -0.85
Reading for CCOc1ccc(C(=O)Nc2cc3c(cc2N2CCCC2)n(C)c(=O)c(=O)n3C)cc1OCC in Bm FixLJ act: 0.1

Only part of the results is shown, so the mix of outcomes need not match the whole.
